Beta2AR agonist: agonists of human beta-2 adrenergic receptor inducing internalization; response, % (test concentration not listed); Am2.2-beta2AR cells, FAP receptor internalization, flow cytometry; reference of the scale not given here; 340,000 tested, 0.43% active; AID 504454;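 active means response above a set limit, near 3 SD of response in nonfluorescent compounds, cut at about 42% in these data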;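 further: stock transfer was 100 nL into about 11 µL; a reference agonist was the positive control; negative values mostly stem from fluorescent compounds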
Target sequence (P07550 whole entry, looked up): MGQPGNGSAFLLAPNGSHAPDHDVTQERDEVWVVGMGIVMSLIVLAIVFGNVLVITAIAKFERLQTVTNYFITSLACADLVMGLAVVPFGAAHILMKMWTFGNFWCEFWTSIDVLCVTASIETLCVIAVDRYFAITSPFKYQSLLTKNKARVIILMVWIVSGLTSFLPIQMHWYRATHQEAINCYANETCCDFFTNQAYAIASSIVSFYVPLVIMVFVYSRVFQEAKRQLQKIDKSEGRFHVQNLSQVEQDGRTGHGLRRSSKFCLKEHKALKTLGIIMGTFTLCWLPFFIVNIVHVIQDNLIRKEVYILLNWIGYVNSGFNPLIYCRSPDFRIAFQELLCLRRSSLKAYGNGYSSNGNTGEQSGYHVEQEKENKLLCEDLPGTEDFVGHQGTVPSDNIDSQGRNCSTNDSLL
T cruzi inh: T. cruzi replication inhibition. AID 1885. T. cruzi beta-gal in NIH3T3, luminescence, 90 h. 300,000 tested, 1.4% active. inhibition, % (test concentration not listed);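 active means mean inhibition across valid replicates above about 55%, limit read from the data; inconclusive means mean below that limit but half or more replicates reach it; inactive means mean below it, under half of replicates reach it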;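 further: signal also drops with host cell toxicity which is not excluded here; 0% = plate median of DMSO wells and 100% = zero luminescence signal; higher percent means less beta-gal luminescence so fewer parasites; stock transfer was 50 nL into about 50 µL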
LANA-H2B inh: blocks KSHV LANA binding to histone H2A/H2B. Q9QR71. cell-free LANA-H2A/H2B peptide, fluorescence polarization. inhibition, % (test concentration not listed). 320,000 tested, 0.6% active; in the data active means inhibition mostly above about 10%, no sharp cut-off; inactive means mostly below about 6.7%;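 further: stock transfer was 7.5 nL into about 10 µL; 0% = median of vehicle wells and 100% = median of positive control wells; one replicate is shown; the record names a cut of 25% in any replicate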
Beta cell apopt: beta cell apoptosis inhibition; 300,000 tested, 0.8% active; protection from apoptosis, % (concentration not given with the values); INS-1E cytokine-induced death, ATP luminescence, 48 h; percent of positive-control rescue, neutral wells zero;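 active means all replicates at 75% or more, or half of them and the mean; inconclusive means half reach 75% but not the mean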;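 further: 0% = cytokine-treated negative control wells and 100% = positive control rescue; higher means more ATP so stronger rescue from cytokine killing; wells of about 40 µL received 100 nL stock; the first replicate is given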
rRNA inh HTS: inhibits bacterial ribosomal RNA function over humanized ribosomes; 350,000 tested, 1.6% active; GFP signal change (wild-type ribosome), % (test concentration not listed); E. coli WT GFP vs humanized-ribosome RFP mutants, fluorescence, 24 h; active compounds read low; DMSO median 0, no signal -100;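 active means significant combined selectivity score with lowered wild-type GFP, culture density cut under 30%, mutant RFP and density less affected; inactive means any of these conditions unmet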; further: one replicate is shown; some compounds called inactive have numbers as strong as hits
ALR H2O2 inh: blocks human ALR sulfhydryl oxidase activity | purified ALR, DTT oxidation, H2O2 HRP-luminol luminescence | inhibition, % (test concentration not listed) | 290,000 tested, 3.8% active;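 active means mean and each replicate at 75% or more; inconclusive means only one of the two met; inactive means neither met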;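 further: stock transfer was 7.5 nL into about 7.5 µL; 0% = neutral wells and 100% = wells with inactivated enzyme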
Target sequence (P55789 whole entry, looked up): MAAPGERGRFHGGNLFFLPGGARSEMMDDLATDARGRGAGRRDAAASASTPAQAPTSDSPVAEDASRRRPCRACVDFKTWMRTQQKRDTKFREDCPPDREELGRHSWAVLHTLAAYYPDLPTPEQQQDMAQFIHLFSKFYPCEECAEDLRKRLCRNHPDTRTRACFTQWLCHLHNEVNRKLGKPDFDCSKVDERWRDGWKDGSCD
A1 inh: inhibitors of the anti-apoptotic protein A1, read as caspase activation; 330,000 tested, 0.066% active; AID 2462; MEF A1-2A-BIM cells, Caspase-Glo 3/7 luminescence, 3 h; percent of clofoctol response, vehicle zero; caspase activation, % (test concentration not listed);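 active means over half of replicate activation scores above 10%, or exactly half above 10 with the replicate mean above 10; inconclusive means replicate mean below 10 yet half the replicates above 10; inactive means over half of replicates below 10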;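 further: wells of about 30 µL received 50 nL stock; many hits fall short of the cut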
Calb FLC: affects C. albicans growth with fluconazole | C. albicans CaCi-2 (fluconazole-resistant clinical isolate) + fluconazole, Alamar Blue growth, 48 h | growth inhibition, % (test concentration not listed) | 300,000 tested, 0.57% active | AID 1979;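 active means most replicates above 75%; inconclusive means exactly half above 75%; inactive means most below 75%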;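 further: all wells also contain fluconazole at 8 µg/ml as a sub-toxic cotreatment; 0% = median of DMSO wells and 100% = median of geldanamycin control wells; wells of about 8 µL received 7.5 nL stock; the first replicate is given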
rRNA inh HTS OD600: second read-out of rRNA inh HTS, no call of its own (marks repeat the call); OD600 change, %; measured here: OD600 growth;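 optical density of the mix in the first replicate; 0 = DMSO median and -100 = no signal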
rRNA inh HTS RFP: recorded beside rRNA inh HTS, whose call it bears; RFP signal change, %; measured here: RFP humanized mutant strains;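 first replicate; 0 = DMSO median and -100 = no signal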
Numbers without * were called inactive; ? = inconclusive; · = not tested or not shown; & = joins results of further samples. These rows are one share of the data. The share of hits here may be higher or lower than overall.

cpd	Compound	Beta2AR agonist	T cruzi inh	LANA-H2B inh	Beta cell apopt	rRNA inh HTS	rRNA inh HTS OD600	rRNA inh HTS RFP	ALR H2O2 inh	A1 inh	Calb FLC
1	Cc1ccc(OCCOc2ccc(Br)cc2/C=N\NC(N)=O)cc1	-277	36	4.0	10	18	11	-2.6	-15	0.2	13
2	CCN(C(=O)CSc1ccc2c(c1)OCCO2)C1CCS(=O)(=O)C1 (centres undefined)	6	-7	0.4	-4	·	·	·	92*	-0.4	-5
3	CC(C)(C)OC(=O)N[C@H](Cc1ccccc1)C(=O)N1CCC(C(=O)O)CC1	-2	9	4.6	-4	·	·	·	-3	0.9	9
4	COc1ccc(Oc2cccc(Cl)c2CNC(=O)CCCC(=O)O)cc1	2	6	2.1	-4	0	-11	-0.7	-1	-2.2	0
5	C/C(=N/NS(=O)(=O)c1ccc(Br)cc1)c1c[nH]c2ccccc12	4	6	1.0	-8	2	4	-0.3	51	0.4	-11
6	Cc1cccc(CNc2ccc(C(CC(N)=O)NC(=O)c3ccccc3)cc2[N+](=O)[O-])c1 (centres undefined)	0	0	4.0	-5	5	0	-0.9	-2	-0.2	-6
7	COc1ccccc1N(C)S(=O)(=O)c1ccc(C(=O)OCC(=O)NCc2cccs2)cc1	12	-4	0.9	-6	-26	-26	-0.8	-3	-0.4	28
8	CCOc1cc(/C=C2\C(=N)N3N=C(CC)SC3=NC2=O)ccc1OCCOc1ccc(NC(C)=O)cc1	2	-6	4.4	-5	9	13	3.1	3	0.5	-2
9	O=C(Cn1c(=O)oc2ccccc21)c1ccccc1	2	5	5.8	-2	·	·	·	4	0.8	3
10	COc1cccc(NC(=O)CSc2ncc(S(=O)(=O)c3ccccc3)c(=O)[nH]2)c1	4	-1	1.2	-5	2	8	-2.4	?	-0.6	-10
11	CN(C)/C=C1/C(=O)Nc2ccccc21	3	-16	-0.2	3	·	·	·	99*	0.0	3
12	O=C(NCC(O)c1ccc([N+](=O)[O-])cc1)c1cccc(S(=O)(=O)N2CCCC2)c1 (centres undefined)	-2	5	-8.5	·	-2	7	5.0	-2	0.6	-5
13	Cc1ccc(SCC(=O)OCC(=O)N(C)CC(=O)Nc2ccc(F)cc2)cc1	-8	-14	-20	-7	4	10	-2.2	-8	0.3	-2
14	CCCn1c(N)c(C(=O)CSc2nnc(C3CC3)n2C2CC2)c(=O)[nH]c1=O	-2	·	-1.9	0	9	16	2.7	·	0.0	·
15	O=C(CSCc1ccccc1Cl)NCCSc1ccccn1	5	-7	6.5	-2	-23	-38	-8.0	10	-0.5	37
16	Cc1cccc(OCc2nc3c4c(ncn3n2)-c2ccccc2CC42CCCC2)c1	-10	4	·	-4	6	10	1.2	·	-0.5	-18
17	COc1ccc(CN2CCN(C)CC2)cc1OCc1ccccc1	6	51	5.4	-3	15	7	-2.8	2	1.1	-8
18	COc1cc(/C=N/NC(=O)c2ccccc2Cl)ccc1Oc1ccc([N+](=O)[O-])cn1	-7	7	-3.5	-2	3	2	1.0	·	0.1	5
19	c1ccc(CC2CCN(Cc3nc(-c4ccccc4)no3)CC2)cc1	7	8	-1.2	11	·	·	·	-1	-0.2	4
20	ClC(Cl)c1nnc(-c2ccccc2)c(-c2c[nH]c3ccccc23)n1	8	-34	-1.0	2	·	·	·	13	0.9	0
21	NCC(=O)CCC(=O)O	-14	8	1.6	-6	7	12	3.2	·	0.2	·
22	COc1ccc2c(c1)C=C(CN1CCN(Cc3ccccc3C)C(CCO)C1)CO2 (centres undefined)	0	55*	-1.4	-1	-17	-16	1.8	3	0.3	-8
23	C=CCn1c(NCCc2ccccc2)nc2c1c(=O)n(C)c(=O)n2C	1	-10	-3.4	23	·	·	·	-3	0.6	5
24	O=C(Cc1cccs1)Nn1c(Cc2cccs2)nc2ccccc2c1=O	-1	18	-1.0	1	-9	-4	1.3	3	-0.4	11
25	C=CCn1c(NC(=O)c2ccccc2)nc2ccccc21	9	31	-3.0	·	-14	-13	3.9	-6	-1.1	32
26	Cc1nc2[nH]c(=O)c3c(n2n1)NC1=C(C(=O)CC(C)(C)C1)C3c1ccc(F)cc1 (centres undefined)	-5	-24	2.9	-7	·	·	·	3	-0.3	?
27	CC(Sc1nnc(C(F)(F)F)n1C)C(=O)Nc1ccc(N2CCOCC2)cc1 (centres undefined)	-5	·	-1.1	7	3	7	1.9	?	0.0	·
28	COc1ccc(OCc2cc(C(=O)N(C)Cc3cnccn3)no2)c(Cl)c1	1	1	3.5	-3	1	-1	6.8	-15	-0.2	0
29	Cc1cc(NS(=O)(=O)c2ccc(NC(=O)CCSc3ccc(F)cc3)cc2)nc(C)n1	-2	3	-2.7	5	4	-3	-2.6	·	-0.2	-1
30	N#Cc1c(C(F)(F)F)cc(-c2ccccc2Cl)[nH]c1=O	-1	-5	5.6	2	·	·	·	·	1.4	10
31	COc1ccc(CNC(=O)C23CC4CC(CC(Br)(C4)C2)C3)cc1	-4	-8	-0.6	·	6	4	5.3	-1	2.9	-5
32	Cc1ccc(CN2C(=O)CSC(C)C2=O)cc1 (centres undefined)	10	0	0.3	-12	12	10	-0.2	-12	0.1	7
33	Cc1ccc(Cl)cc1N1CCN(C(=O)CSc2nnc3n2C(C)(C)Cc2ccccc2-3)CC1	6	24	-0.8	94*	·	·	·	0	-0.6	18
34	CCC(=O)Nc1nonc1-c1nc2ccccc2n1CC(C)C	0	-15	-2.9	1	·	·	·	3	1.8	-7
35	C=C1SC(=Nc2c(C)cc(C)cc2C)N(C(=O)c2sc3ccccc3c2Cl)C12CCCCC2	-6	18	2.7	12	1	-2	1.4	0	1.6	-12
36	CN(C)CCNC(=O)c1coc(=O)c(Br)c1	9	-5	1.2	-11	·	·	·	-5	1.3	-12
37	Cc1ccc(S(=O)(=O)Nc2ccc3c(c2)C(=O)N([C@H](C)CO)C[C@@H](C)[C@@H](CN(C)C(=O)Nc2cccc4ccccc24)O3)cc1	8	·	6.0	-6	1&2	-7&-8	2.6&12	·	-0.4	·
38	Cc1n[nH]c(C)c1S(=O)(=O)N1CCCC(C(=O)O)C1 (centres undefined)	10	·	0.9	2	3	13	-3.1	-7	0.0	·
39	O=C(O)CC1C(=O)OCN1C(=O)OCc1ccccc1 (centres undefined)	-3	-3	4.7	-9	22	11	3.9	·	0.3	-1
40	CCOc1ccc2nc(SCC(=O)N3c4ccccc4Sc4ccccc43)c(C#N)cc2c1	13	38	1.4	-4	11	13	6.4	·	2.0	-2
41	CC1Cc2ccccc2N1CC(=O)Nc1ccc(S(N)(=O)=O)cc1 (centres undefined)	2	-1	-5.7	-1	10	8	2.2	-6	0.9	-2
42	O=c1[nH]c(-c2ccccc2)c(-c2ccccc2)o1	1	-13	-5.4	4	10	-2	-5.5	·	-0.5	-1
43	Cc1ccc(CS(=O)Cc2ccc(C(=O)NC3CCC(C)CC3)o2)cc1 (centres undefined)	5	0	1.7	-5	-2	-13	-5.7	61	1.5	-6
44	Cn1nnnc1SCC(=O)Nc1cccc(S(=O)(=O)N2CCCCC2)c1	-6	·	-2.1	-10	·	·	·	-1	0.6	·
45	O=C1CC(c2ccccc2Cl)=NN(c2ncnc3ccccc23)C1=O	0	3	-2.8	11	8	12	-1.4	10	-3.5	-1
46	COc1cc(OC)cc(C(=O)N[C@H](C(=O)OCC(=O)Nc2cccnc2Cl)C(C)C)c1	-2	·	-6.9	-3	0	5	-2.3	0	0.6	·
47	Cc1ccc(NC(=O)c2ccn(C(=O)Nc3ccccc3)n2)c(C)c1	2	8	5.6	·	3	2	-5.0	-8	-7.9	-13
48	O=C(Cn1ncc2c3ccccc3n(Cc3ccccc3F)c2c1=O)NCCN1CCOCC1	-14	7	3.2	0	-1	4	-3.7	-3	1.3	19
49	Cc1noc(C)c1C(=O)N1CCCC(Nc2ccc(C(C)C)cc2)C1 (centres undefined)	-3	0	21*	-2	1	6	-2.9	98*	0.8	2
50	Cc1ccc(NC(=O)C(=O)NCCN2CCN(C(=O)C(c3ccccc3)c3ccccc3)CC2)cc1	1	-6	2.3	9	·	·	·	1	-0.5	3

(further entries)
cpd	Compound	Beta2AR agonist	T cruzi inh	LANA-H2B inh	Beta cell apopt	rRNA inh HTS	rRNA inh HTS OD600	rRNA inh HTS RFP	ALR H2O2 inh	A1 inh	Calb FLC
51	O=C(Cc1cccc(NC(=O)C2CCN(C(=O)C3CCC3)CC2)c1)Nc1cccc(C(=O)N2CCCC2)c1	-11	·	2.8	2	-13	8	-3.6	2	-1.6	·
52	CCC(Oc1ccccc1)C(=O)Nc1nc2ccccc2[nH]1 (centres undefined)	-8	1	-1.6	18	·	·	·	0	0.2	-36
53	O=C(CSc1nc2ccccc2c(=O)[nH]1)Nc1ccc(C(=O)O)cc1	-7	-3	-2.3	-4	12	15	3.2	·	-0.1	-4
54	O=C(CNC(=O)c1ccccc1)c1ccccc1	-4	-1	-0.6	-3	16	10	1.3	·	-6.8	-4
55	N#Cc1ccccc1OCC(=O)NNC(=O)CCC1CCCC1	-4	·	2.7	-9	·	·	·	1	0.3	·
56	Cc1cccc(C(=O)N2CCN(c3ncnc4c3cnn4-c3ccccc3)CC2)c1	-2	11	3.6	7	·	·	·	1	0.1	11
57	CN1CCN(C(=O)/C(=C/c2cn(S(=O)(=O)N(C)C)c3ccccc23)NC(=O)c2ccccc2F)CC1	-18	-16	-2.6	-6	-1	-1	-0.5	-3	-0.2	-4
58	COc1ccc(C(=O)C2CCCN(C(=O)c3cccc(Cn4cccn4)c3)C2)cc1F (centres undefined)	4	7	-0.3	-1	-7	-5	0.0	-2	-0.6	-2
59	COc1cccc(OC)c1C(=O)NNC(=O)c1cccc(COc2ccc3c(c2)CCC3)c1	15	7	-4.5	2	·	·	·	-3	0.1	1
